# MT1-MMP promoter – inhibitors of MT1-MMP promoter transcription, cell-based, luciferase reporter, luminescence (AID 618). MT1-MMP promoter luciferase reporter cells, luminescence. calls from a first round at 10 µM; hits with a dose series show EC50 in µM. 0.62% of 87,000 active;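 active = over half of the reporter light lost at 10 µM or EC50 under 50 µM; inactive = the rest and hits that failed the dose series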;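 note: actives suppress MT1-MMP promoter-driven transcription so potencies describe inhibitors; HT1080 fibrosarcoma cells; overnight exposure; toxic or luciferase-blocking compounds were not removed from the actives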
# WNV NS2B-NS3 inh – inhibitors of WNV NS2B-NS3 protease, primary screen, biochemical, fluorogenic substrate; Genome polyprotein (West Nile virus), P06935; fluorogenic substrate Ex360/Em465; hits give low values; z-score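 (tested at a level between 10 and 100 µM)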; 0.18% of 65,000 active; AID 577, 2007;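 active = z-score at -3 or under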;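 note: score is relative to mean and spread of the compound wells of a plate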
# Target sequence (P06935 1371-1501 limits assumed): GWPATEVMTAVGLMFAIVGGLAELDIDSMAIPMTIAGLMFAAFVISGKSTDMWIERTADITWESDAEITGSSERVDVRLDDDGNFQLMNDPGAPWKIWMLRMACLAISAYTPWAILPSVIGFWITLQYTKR
# Target sequence (P06935 1502-1679 limits assumed): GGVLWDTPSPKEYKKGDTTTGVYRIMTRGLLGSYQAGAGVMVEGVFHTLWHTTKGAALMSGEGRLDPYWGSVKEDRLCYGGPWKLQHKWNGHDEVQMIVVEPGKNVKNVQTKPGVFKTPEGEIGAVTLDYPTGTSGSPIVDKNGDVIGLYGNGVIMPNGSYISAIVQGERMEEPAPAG
# Hsc70 ATP site – Hsc70 inhibitors, probe displacement, primary screen, biochemical, fluorescence polarization (AID 568). 83,000 tested, under 10 active. displacement, % at 20 µM, or IC50 in µM where a hit was titrated. Heat shock cognate 71 kDa protein (Homo sapiens). Hsc70 fluorescence polarization, probe displacement; higher % means a stronger effect; strong numbers were not always called active;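 active = displacement above 50% without optical interference and an IC50 on retest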;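 note: ATPase domain with a fluorescein-tagged ATP probe; 0% = vehicle and 100% = excess ADP; read after one hour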
# Starred values were filed as active, the others as inactive; i = inactive; . = not tested or not shown.
SMILES,MT1-MMP promoter,WNV NS2B-NS3 inh,Hsc70 ATP site
COc1ccc(S(=O)(=O)n2nc(C)cc2C)c(C)c1C,i,.,2.7%
COc1ccc(OC)c(NC(=O)C2CCCN2C(=O)OCc2ccccc2)c1 (stereo unspecified),i,1.5,3.2%
O/N=C1/C2C3CC4C5C3C1C5C1(OCCO1)C42 (stereo unspecified),i,-0.17,-4.4%
O=c1[nH]cnc2scc(-c3ccc(-c4ccccc4)cc3)c12,i,.,1.6%
Cc1ncn(C23CC4CC(CC(O)(C4)C2)C3)n1,i,1.8,1.9%
COCCCNC(=O)C(C#N)c1nc2ccccc2nc1N1CCN(Cc2ccccc2)CC1 (stereo unspecified),i,-1.8,30%
CCC(c1nnnn1Cc1ccco1)N(CCc1ccccc1)Cc1cc2cccc(C)c2[nH]c1=O (stereo unspecified),i,-0.99,-12%
CCOc1nc(Nc2cc(Cl)ccc2OC)nc(OCC)n1,i,.,4.4%
COc1ccc(OC)c(CNC(=O)CCNC(=O)Cn2ccc3ccccc3c2=O)c1,i,-0.57,1.9%
CC12CN3CC(C)(CN(C1)C3c1cc(Br)ccc1O)C2=O (stereo unspecified),i,0.56,5.2%
CCOC(=O)N1CCN(Cc2nc3c(c(=O)[nH]c(=O)n3C)n2CCCc2ccccc2)CC1,i,0.15,-3.2%
CN(C)P(=NC(=O)COc1ccc(Cl)cc1Cl)(N(C)C)N(C)C,i,-0.62,1.0%
COc1ccnc(CSC(N)=Nc2ccccc2OC)c1,i,.,-2.2%
O=C(Nc1sc2c(c1C(=O)O)CCCC2)c1cccs1,i,-0.04,-2.6%
CC(C)CCOc1ccc(Cl)cc1CN1CCOCC1,i,0.46,-4.8%
CNC(=O)c1ccc(N(Cc2ccccc2C)S(C)(=O)=O)cc1,i,-0.31,-0.1%
CCN1CCN(Cc2nc(N)nc(Nc3ccc(C)c(C)c3)n2)CC1,i,0.41,-2.6%
O=C(CN1C(=O)COc2ccccc21)NCCCN1CCN(Cc2ccccc2)CC1,i,1.2,-0.2%
O=C(NC1CCCC1)c1ccc(COCC(F)(F)F)o1,i,0.02,5.9%
CCn1c(SCC(=O)Nc2nc3c(s2)CCCC3)nc2c1c(=O)n(C)c(=O)n2C,i,-1,0.0%

# The list goes on; it opens with the 4 that closed the last part.
SMILES,MT1-MMP promoter,WNV NS2B-NS3 inh,Hsc70 ATP site
CCN1CCN(Cc2nc(N)nc(Nc3ccc(C)c(C)c3)n2)CC1,i,0.41,-2.6%
O=C(CN1C(=O)COc2ccccc21)NCCCN1CCN(Cc2ccccc2)CC1,i,1.2,-0.2%
O=C(NC1CCCC1)c1ccc(COCC(F)(F)F)o1,i,0.02,5.9%
CCn1c(SCC(=O)Nc2nc3c(s2)CCCC3)nc2c1c(=O)n(C)c(=O)n2C,i,-1,0.0%
COc1ccc(OC)c2c1sc(=NC(=O)C(C)C)n2C,i,-1.6,1.3%
CC1(C)CC(=O)C(C(c2ccncc2)C2C(=O)CC(C)(C)CC2=O)C(=O)C1,i,2.8,-1.2%
O=c1[nH]c2ccc(S(=O)(=O)N3CCCCC3)cc2[nH]c1=O,i,.,4.3%
O=C(O)COc1ccc(S(=O)(=O)NCCc2ccccc2)cc1,i,0.3,5.0%
COc1ccc(CCn2nnnc2C(CC(C)C)N2CCN(c3ncccn3)CC2)cc1OC (stereo unspecified),i,0.79,-12%
O=C1C=C(OCc2ccccc2)CN1,i,1.9,1.0%
CCC(=O)N1CCN(c2ccccc2NC(=O)Cc2ccccc2)CC1,i,0.26,0.5%
CC(Nc1cc(=O)n(C)c(=O)n1C)c1ccccc1 (stereo unspecified),i,0.98,2.6%
O=C(CCSCc1ccccc1Cl)N1CCN(c2ccccn2)CC1,i,.,3.7%
CC(C)(C)c1nn(-c2ccccc2)c2[nH]c(=O)c(CNCc3ccco3)cc12,i,-0.31,-2.7%
Cc1ccccc1N(CC(=O)Nc1ccc(F)cc1)S(C)(=O)=O,i,0.17,-5.0%
CCOC(=O)NCC(C#CCN(CC)CC)N(CC)CC (stereo unspecified),i,0.49,-0.6%
Cc1ccc(Nc2nc(N)nc(CSc3nncn3C)n2)cc1,i,.,-5.1%
O=C(Nc1nnc(CC(=O)N2CCCC2)s1)c1cnccn1,i,-1.2,0.2%
CN(Cc1ccccc1)c1nc2c(c(=O)[nH]c(=O)n2C)n1Cc1ccccc1Cl,i,0.81,0.2%
Cc1cc(C)cc(N2CCCC2=O)c1,i,.,-2.3%
COC(=O)CSc1nc2c(c(C3CC=CCC3)c1C#N)CCC2 (stereo unspecified),i,.,0.7%
COc1ccc(OC)c(NS(=O)(=O)c2ccc(NC(C)=O)cc2)c1,i,.,5.9%
C=CC(=O)N1c2ccccc2Sc2ccc(NC(=O)OCC)cc21,i,.,0.3%
CC(C)n1c(=O)[nH]c2ccccc21,i,-0.27,5.6%

# Filtered by structure: those above containing a thiophene ring, fused or not
SMILES,MT1-MMP promoter,WNV NS2B-NS3 inh,Hsc70 ATP site
O=c1[nH]cnc2scc(-c3ccc(-c4ccccc4)cc3)c12,i,.,1.6%
O=C(Nc1sc2c(c1C(=O)O)CCCC2)c1cccs1,i,-0.04,-2.6%

# 3 entries from above, ordered by formula weight, lowest first.
SMILES,MT1-MMP promoter,WNV NS2B-NS3 inh,Hsc70 ATP site
CC(C)n1c(=O)[nH]c2ccccc21,i,-0.27,5.6%
COc1ccc(OC)c(NS(=O)(=O)c2ccc(NC(C)=O)cc2)c1,i,.,5.9%
O=C(CCSCc1ccccc1Cl)N1CCN(c2ccccn2)CC1,i,.,3.7%

# New compounds follow:
SMILES,MT1-MMP promoter,WNV NS2B-NS3 inh,Hsc70 ATP site
O=C(NCc1ccco1)C1CCCN(S(=O)(=O)c2cccc3cccnc23)C1 (stereo unspecified),i,-0.5,0.5%
C=CCn1c(SCc2ccc3nonc3c2)nnc1-c1cccs1,i,-0.46,-1.6%
CCOc1ccc(N2C(=O)CC(N3CCN(c4ccccc4F)CC3)C2=O)cc1 (stereo unspecified),i,-0.25,3.2%
Cc1nc(N[C@@H](Cc2ccccc2)C(=O)O)c2oc3ccccc3c2n1,i,.,2.2%
CCn1ncc(C2=NOC(C(=O)NCc3ccc(Cl)cc3)C2)c1C (stereo unspecified),i,-0.97,-0.7%
COCCC(=O)N(Cc1ccc2c(c1)OCO2)C(C(=O)NC1CCCCC1)c1ccncc1 (stereo unspecified),i,1.4,-21%
CCOC(=O)c1sc(NC(=O)CSc2nc3c(cc2C#N)CCCCCC3)c(C#N)c1C,i,0.43,-6.1%
O=c1cc(NCc2ccccc2)nc2n1CCCS2,i,0.08,-5.0%
COc1cccc(OCCn2c(C)c(/C=N/n3cnnc3)c3ccccc32)c1,i,-0.79,-1.8%
CC(NC(=O)COc1cc(=O)n(C)c2ccccc12)c1ccc2c(c1)OCCO2 (stereo unspecified),i,0.63,2.2%
O=C(c1cnc2n(c1=O)CCS2)N1CCCc2ccccc21,i,1.3,1.8%
COc1cccc(C2C(C(=O)c3cc4cccc(OC)c4o3)=C(O)C(=O)N2c2cc(C)on2)c1OC (stereo unspecified),i,-1.2,3.4%
C=CCN1C(=NC(=O)CCC)SC2CS(=O)(=O)CC21 (stereo unspecified),i,.,2.7%
O=C(NC1CCCC1)c1c[nH]c2ccc(F)cc2c1=O,i,-0.62,-0.1%
Cc1ccc(C)c(S(=O)(=O)NCc2ccc(C(=O)NCc3ccco3)cc2)c1,i,.,-5.6%
Cc1cccc(N(C)C(=O)c2coc(=O)c3ccccc23)c1,i,-0.15,5.9%
CC(C)OCCCNS(=O)(=O)c1ccc2c(c1)OCCO2,i,-0.41,-3.7%
CN=Cc1c(NC)nc2c(C)cccn2c1=O,i,.,-3.3%
Cc1cccc(N)c1SC1CCCCC1O (stereo unspecified),i,0.07,6.0%
COc1ccc2nc(NC(=O)C3COc4ccccc4O3)sc2c1 (stereo unspecified),i,0.99,5.0%
COCCn1c(C)cc(C(=O)COC(=O)C23CC4CC(CC(O)(C4)C2)C3)c1C,i,-0.73,-0.8%
COC(=O)C1CCN(C(=O)COC(=O)CC(NC(N)=O)c2ccc(Cl)cc2)CC1 (stereo unspecified),i,-0.23,-4.3%
COc1cc2[nH]c(=O)n(CCCCCC(=O)NCCc3c[nH]c4ccccc34)c(=O)c2cc1OC,i,.,-1.3%
Cc1ccc(C2C(/C=C3/SC(=S)NC3=O)=C(c3cccs3)Oc3ccccc32)cc1 (stereo unspecified),i,.,-17%
CC(CCc1ccccc1)NC(=O)c1cc2sccc2n1C (stereo unspecified),i,-0.29,-0.5%
CC1CCCC/C1=N\NS(=O)(=O)c1ccc(Br)cc1 (stereo unspecified),i,.,0.5%
CCn1nc(-c2ccccc2)c2nc3ccccc3nc21,i,-0.09,44%
CCOC(=O)N1CCC(N2Cc3cccc(C(=O)NCc4ccccn4)c3C2=O)CC1,i,0.48,1.4%
CCN(CC(=O)NCc1ccc(F)cc1)C(=O)C1CCN(C(=O)Nc2ccccc2)CC1,i,1.7,-2.0%
COC(=O)C1=CN(C)C=C(C(=O)OC)C1c1ccsc1,i,0.99,-5.8%
COC(=O)C1C(O)=C(C=NCC(C)N=CC2=C(O)C(C(=O)OC)C(C)(C)CC2=O)C(=O)CC1(C)C (stereo unspecified),i,0.06,4.1%
COc1ccc(-n2nnnc2-c2cccnc2)cc1,i,1.8,3.0%
O=C(Nc1nc(-c2ccc(S(=O)(=O)N3CCCC3)cc2)cs1)c1cccs1,i,0.26,-2.0%
CCCn1nnc(NC(=O)COc2ccc(Cl)cc2)n1,i,0.61,3.8%
Cc1ccc2c(c1)N(Cc1ccncc1)C(=O)C(C)O2 (stereo unspecified),i,-0.2,-4.0%
COCCn1c(SC(C)C(=O)Nc2ccc3c(c2)OCCO3)nc2ccccc2c1=O (stereo unspecified),i,-0.75,3.2%
CCn1c2ccccc2c2cc(NC(=O)N3CCOCC3)ccc21,i,2.5,-3.3%
COc1ccc(C(=O)NCCn2ccc3ccccc32)cc1OC,i,-0.67,-3.9%
Cn1c(=O)n(Cc2ccccc2F)c(=O)c2c1nc1n2CCCN1CCc1ccccc1,i,0.85,-1.1%
O=C1NC(=O)c2cc(NC(=O)C3CCCCC3)ccc21,i,0.52,-1.7%

# Whole records from above.
# `Cn1c(=O)n(Cc2ccccc2F)c(=O)c2c1nc1n2CCCN1CCc1ccccc1` is listed as MT1-MMP promoter = i; WNV NS2B-NS3 inh = 0.85; Hsc70 ATP site = -1.1%
# `COC(=O)C1CCN(C(=O)COC(=O)CC(NC(N)=O)c2ccc(Cl)cc2)CC1` (stereo unspecified) is listed as MT1-MMP promoter = i; WNV NS2B-NS3 inh = -0.23; Hsc70 ATP site = -4.3%
# `CC(CCc1ccccc1)NC(=O)c1cc2sccc2n1C` (stereo unspecified) is listed as MT1-MMP promoter = i; WNV NS2B-NS3 inh = -0.29; Hsc70 ATP site = -0.5%

# (list continues)
SMILES,MT1-MMP promoter,WNV NS2B-NS3 inh,Hsc70 ATP site
COc1ccccc1-c1nnc(SCC(=O)Nc2cc(C)on2)o1,i,0.63,-6.1%
Cc1ccccc1N(CC(=O)NCc1ccc2c(c1)OCO2)C(=O)CCC(=O)Nc1ccccn1,i,0.28,3.4%
COc1ccc(N(CC(=O)NCc2cccnc2)S(=O)(=O)c2c(C)nn(C)c2C)cc1,i,-0.07,1.2%
CCOC(=O)N1CCC(N2C(=O)c3ccccc3C2Nc2ccccc2C)CC1 (stereo unspecified),i,0.14,1.2%
CN(C(=O)CSc1nc2ccccc2n1CCc1ccccc1)C1CCS(=O)(=O)C1 (stereo unspecified),i,-1.3,4.9%
Cc1nnc(NC(=O)NCN2C(=O)C3C4C=CC(C4)C3C2=O)s1 (stereo unspecified),i,1.6,2.0%
Nc1cc(=O)[nH]c(SCC(=O)Nc2cc(Cl)cc(Cl)c2)n1,i,.,7.4%
Cc1ccc(-n2c(CNc3ccc(F)cc3)nnc2SCC(=O)NCc2ccco2)cc1,i,-1.7,-5.6%
O=C1c2ccccc2C(=O)N1CCCOCc1c[nH]c(=O)[nH]c1=O,i,0.46,-4.9%
CN1C(=O)NC(NC(=O)c2cccs2)(C(F)(F)F)C1=O (stereo unspecified),i,0.24,2.2%
O=C1OCCC1Sc1nc2ccccc2n1Cc1ccccc1 (stereo unspecified),i,-0.11,1.1%
O=C(Nc1ccc2c(c1)OCCO2)C1CCN(S(=O)(=O)Cc2ccccc2)CC1,i,0.38,0.8%
CCC1CCCCN1S(=O)(=O)c1ccc(NC(=O)CSc2ncccc2C(=O)O)cc1 (stereo unspecified),i,0.73,-2.2%
CC1Cc2ccccc2N1Cc1nc2cc(C(F)(F)F)ccc2c(=O)[nH]1 (stereo unspecified),i,.,-1.5%
CCOC(=O)C1CCN(C(=O)c2cn(C)c(=O)c3cc(OC)c(OC)cc23)CC1,i,0.91,1.8%
COc1ccc(-c2nc(CN3CCC(C(=O)NC4CCCc5ccccc54)CC3)c(C)o2)cc1OC (stereo unspecified),i,0.16,2.9%
Cc1nc2c(Br)c3nc(C(F)(F)F)[nH]c3c(Br)c2[nH]1,i,0.09,15%
CCn1ncc(Br)c1C(=O)Nc1nccs1,i,-0.35,4.0%
CCOC(=O)c1cnn(Cc2ccccc2)c1N,i,.,-0.6%
O=C(O)c1cccc(Cn2cc(Br)cn2)c1,i,-0.53,-4.2%
Cc1ccc(NC2=Nc3ccccc3CS2)cc1,i,0.24,-5.3%
COc1cccc(C2CC(C(F)(F)F)n3ncc(C(=O)NC(C)(C)C)c3N2)c1 (stereo unspecified),i,.,-4.2%
CCOc1ccccc1NC(=O)CN1C(=O)COc2ccc(Cl)cc21,i,-0.02,-3.3%
